High-throughput results from PubChem.
AF4-AF9 inh: blocks AF4 peptide binding to human AF9. AlphaScreen, biotin-AF4 peptide binding to FLAG-AF9. inhibition, % at 10 µM. hit rate 0.47% among 350,000. AID 651704;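 active means every replicate reaching a set inhibition limit, whatever the replicate mean, cut at about 25% in these data; inconclusive means mean inhibition reaches that limit but some replicates miss it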;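 further: 0% = plate neutral control median and 100% = total signal loss; the record names both 10 and 1 µM as test concentration; the first replicate is given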
Target sequence (P42568 whole entry, looked up): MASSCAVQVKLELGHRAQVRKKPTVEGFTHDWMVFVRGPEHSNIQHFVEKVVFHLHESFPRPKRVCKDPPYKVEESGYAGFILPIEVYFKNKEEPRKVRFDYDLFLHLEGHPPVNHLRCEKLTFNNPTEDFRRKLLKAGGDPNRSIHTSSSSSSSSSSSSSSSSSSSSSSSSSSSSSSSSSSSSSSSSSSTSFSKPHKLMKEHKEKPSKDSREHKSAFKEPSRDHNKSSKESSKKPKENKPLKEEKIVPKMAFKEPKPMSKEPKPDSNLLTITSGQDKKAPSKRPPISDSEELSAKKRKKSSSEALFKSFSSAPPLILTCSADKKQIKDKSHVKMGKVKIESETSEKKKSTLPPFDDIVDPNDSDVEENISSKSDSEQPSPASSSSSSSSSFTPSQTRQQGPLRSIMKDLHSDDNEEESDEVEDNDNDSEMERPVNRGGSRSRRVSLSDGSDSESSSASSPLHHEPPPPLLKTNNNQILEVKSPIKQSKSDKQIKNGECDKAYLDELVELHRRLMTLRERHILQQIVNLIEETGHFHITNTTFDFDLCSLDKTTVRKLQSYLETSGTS
FGF22 binding: shifts melting point of recombinant human FGF22 | Q9HCT0 | recombinant FGF22 thermal shift, SYPRO orange fluorescence; percent of sucrose octasulfate shift, DMSO zero | calls only at 9.99 µM | hit rate 1.5% among 340,000 | AID 651658;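 active means melting point raised past a set limit in the mean and every replicate; inconclusive means no clear call; three in four hits are not shown here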
Target sequence (Q9HCT0 whole entry, looked up): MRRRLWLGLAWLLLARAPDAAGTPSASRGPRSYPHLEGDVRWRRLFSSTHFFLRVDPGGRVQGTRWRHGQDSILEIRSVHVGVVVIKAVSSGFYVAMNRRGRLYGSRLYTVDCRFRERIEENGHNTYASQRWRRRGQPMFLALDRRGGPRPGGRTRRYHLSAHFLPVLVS
Starred values were filed as active, the others as inactive. These rows are one share of the data. The share of hits here may be higher or lower than overall.

COCC#Cc1ccc([C@H]2[C@@H](CO)N3CCCCN(S(=O)(=O)c4ccccc4F)C[C@H]23)cc1 was read as AF4-AF9 inh -4.5 and FGF22 binding inactive.
For COCCN(C[C@@H]1[C@@H](c2ccccc2)[C@H](CO)N1C(=O)C1CCC1)C(C)=O the results were AF4-AF9 inh -1.1 and FGF22 binding inactive.
COc1cccc(S(=O)(=O)Nc2ccc3c(c2)[C@@H]2C[C@H](CC(=O)N[C@@H](C)c4ccccc4)O[C@@H](CO)[C@@H]2O3)c1 was read as AF4-AF9 inh -6.0 and FGF22 binding inactive.
COc1ccc(S(=O)(=O)Nc2ccc3c(c2)C(=O)N([C@H](C)CO)C[C@@H](C)[C@H](CN(C)S(=O)(=O)c2cccs2)OCCCC[C@@H](C)O3)cc1 was read as AF4-AF9 inh 0.9 and FGF22 binding inactive.
C[C@@H]1CN([C@@H](C)CO)C(=O)Cc2cc(NC(=O)Cn3cnnn3)ccc2O[C@@H]1CN(C)CC1CC1 was read as AF4-AF9 inh 0.0 and FGF22 binding inactive.
`COc1ccc(CNC(=O)C[C@H]2C[C@@H]3c4cc(NS(=O)(=O)c5ccc(F)cc5)ccc4O[C@@H]3[C@H](CO)O2)cc1` gave AF4-AF9 inh -4.3 and FGF22 binding inactive.
`CO[C@@H]1CC[C@@H]2CCN(C)C(=O)[C@@H](C)N(C)C(=O)c3cc(C#N)ccc3OC[C@H]1O2` gave AF4-AF9 inh 1.3 and FGF22 binding inactive.
Screening C[C@H]1CN([C@@H](C)CO)C(=O)c2cccc(NS(=O)(=O)c3ccccc3)c2O[C@@H]1CN(C)C(=O)NC1CCCCC1 returned AF4-AF9 inh -2.5 and FGF22 binding inactive.
For C[C@@H]1CCCCO[C@H](CN(C)S(=O)(=O)c2cn(C)cn2)[C@@H](C)CN([C@@H](C)CO)C(=O)c2cc(NS(=O)(=O)c3ccccc3)ccc2O1 the results were AF4-AF9 inh 2.2 and FGF22 binding inactive.
Screening Cc1noc(C)c1NC(=O)N1C[C@H](O)COC[C@H]2O[C@H](CC(=O)NCC3CCCCC3)CC[C@@H]21 returned AF4-AF9 inh -0.1 and FGF22 binding inactive.

A run of entries from the list above:
COCC#Cc1ccc([C@H]2[C@@H](CO)N3CCCCN(S(=O)(=O)c4ccccc4F)C[C@H]23)cc1 was read as AF4-AF9 inh -4.5 and FGF22 binding inactive.
For COCCN(C[C@@H]1[C@@H](c2ccccc2)[C@H](CO)N1C(=O)C1CCC1)C(C)=O the results were AF4-AF9 inh -1.1 and FGF22 binding inactive.
COc1cccc(S(=O)(=O)Nc2ccc3c(c2)[C@@H]2C[C@H](CC(=O)N[C@@H](C)c4ccccc4)O[C@@H](CO)[C@@H]2O3)c1 was read as AF4-AF9 inh -6.0 and FGF22 binding inactive.
COc1ccc(S(=O)(=O)Nc2ccc3c(c2)C(=O)N([C@H](C)CO)C[C@@H](C)[C@H](CN(C)S(=O)(=O)c2cccs2)OCCCC[C@@H](C)O3)cc1 was read as AF4-AF9 inh 0.9 and FGF22 binding inactive.
C[C@@H]1CN([C@@H](C)CO)C(=O)Cc2cc(NC(=O)Cn3cnnn3)ccc2O[C@@H]1CN(C)CC1CC1 was read as AF4-AF9 inh 0.0 and FGF22 binding inactive.
`COc1ccc(CNC(=O)C[C@H]2C[C@@H]3c4cc(NS(=O)(=O)c5ccc(F)cc5)ccc4O[C@@H]3[C@H](CO)O2)cc1` gave AF4-AF9 inh -4.3 and FGF22 binding inactive.
`CO[C@@H]1CC[C@@H]2CCN(C)C(=O)[C@@H](C)N(C)C(=O)c3cc(C#N)ccc3OC[C@H]1O2` gave AF4-AF9 inh 1.3 and FGF22 binding inactive.

Other entries.
C[C@H](NC(=O)[C@H]1[C@H](CO)[C@H]2Cn3c(cccc3=O)[C@H]2N1C(=O)C1CC1)c1ccccc1 was read as AF4-AF9 inh 0.4 and FGF22 binding inactive.
`C[C@H](CO)N1C[C@H](C)[C@@H](CN(C)C)Oc2ccc(NC(=O)Cc3ccccc3)cc2CC1=O` gave AF4-AF9 inh 0.1 and FGF22 binding inactive.
For CCCNC(=O)N[C@@H]1CC[C@@H](CCNS(=O)(=O)c2cccc(F)c2)O[C@@H]1CO the results were AF4-AF9 inh 1.5 and FGF22 binding inactive.
For CN(C)C(=O)c1ccc(-c2ccc3c(c2)[C@@H]2[C@@H](CCN2C(=O)C2CC2)[C@H](CO)N3C)cc1 the results were AF4-AF9 inh -12.3 and FGF22 binding inactive.
Screening COc1ccc(NC(=O)N(C)C[C@H]2Oc3ccc(NS(=O)(=O)c4cccs4)cc3C(=O)N([C@@H](C)CO)C[C@H]2C)cc1 returned AF4-AF9 inh -1.4 and FGF22 binding inactive.
`COc1cccc(-c2cn(CC[C@H]3CC[C@H](NS(=O)(=O)Cc4ccccc4)[C@H](CO)O3)nn2)c1` gave AF4-AF9 inh 3.6 and FGF22 binding inactive.
For C[C@@H]1CN([C@@H](C)CO)C(=O)c2cc(-c3ccc(C#N)cc3)cnc2O[C@@H]1CN(C)C(=O)c1cccnc1 the results were AF4-AF9 inh -4.5 and FGF22 binding inactive.
For CCC(=O)N1[C@@H](CO)[C@@H](c2ccccc2)C12CN(C(=O)Nc1cccc(OC)c1)C2 the results were AF4-AF9 inh -0.4 and FGF22 binding inactive.
For C[C@@H]1CCCCO[C@@H](CN(C)CC2CCCCC2)[C@@H](C)CN([C@@H](C)CO)C(=O)c2cc(NS(=O)(=O)c3ccccc3)ccc2O1 the results were AF4-AF9 inh 4.6 and FGF22 binding inactive.
`C[C@@H]1CN([C@@H](C)CO)C(=O)Cc2cc(NS(=O)(=O)c3ccc(Cl)cc3)ccc2O[C@H]1CN(C)Cc1ccc(C(F)(F)F)cc1` gave AF4-AF9 inh 0.1 and FGF22 binding inactive.
`CC(=O)OCC(=O)N1CCN(C(=O)C(=O)c2cccc(C(F)(F)F)c2)CC1` gave AF4-AF9 inh 0.7 and FGF22 binding inactive.
Screening Cc1noc(C)c1NC(=O)Nc1ccc2c(c1)C(=O)N([C@@H](C)CO)C[C@H](C)[C@H](CN(C)C(=O)Nc1ccccc1)OCCCC[C@H](C)O2 returned AF4-AF9 inh -3.8 and FGF22 binding inactive.
For Cc1cccc(S(=O)(=O)N(C)C[C@@H]2OCc3ccccc3-c3ccccc3C(=O)N([C@H](C)CO)C[C@H]2C)c1 the results were AF4-AF9 inh 10.7 and FGF22 binding inactive.
For C[C@@H]1CN([C@@H](C)CO)C(=O)c2cc(NS(=O)(=O)c3ccc(F)cc3)ccc2O[C@@H](C)CCCCO[C@H]1CN(C)CC1CCCCC1 the results were AF4-AF9 inh -5.5 and FGF22 binding inactive.
Screening CCCNC(=O)N1[C@@H]2Cn3c(cccc3=O)[C@H]1[C@@H](C(=O)N1CCC(Cc3ccccc3)CC1)[C@@H]2CO returned AF4-AF9 inh -2.7 and FGF22 binding inactive.
`COc1ccc(S(=O)(=O)N(C)C[C@@H]2OCCCC[C@H](C)Oc3ccc(NC(=O)NC4CCCCC4)cc3C(=O)N([C@@H](C)CO)C[C@@H]2C)cc1` gave AF4-AF9 inh 2.1 and FGF22 binding inactive.
O=C(O)C[C@H]1CC[C@H]2[C@@H](COC[C@@H](O)CN2S(=O)(=O)c2ccc(F)cc2)O1 was read as AF4-AF9 inh -3.5 and FGF22 binding inactive.
For CO[C@H]1CN(C)C(=O)c2cc(NC(=O)NC3CCCCC3)ccc2OC[C@H](C)N(CC2CCOCC2)C[C@@H]1C the results were AF4-AF9 inh -16.7 and FGF22 binding inactive.
`C[C@@H]1CCCCO[C@@H](CN(C)S(=O)(=O)c2ccccc2)[C@@H](C)CN([C@@H](C)CO)C(=O)c2cc(NC(=O)Nc3ccccc3)ccc2O1` gave AF4-AF9 inh 0.1 and FGF22 binding inactive.
For CC(=O)N1CCCCN2[C@@H](CO)[C@@H](c3ccc(-c4cccc(C)c4)cc3)[C@@H]2C1 the results were AF4-AF9 inh 0.2 and FGF22 binding inactive.
Screening O=C(C[C@@H]1CC[C@@H]2[C@H](COC[C@@H](O)CN2C(=O)c2ccc3c(c2)OCO3)O1)NC1CCC1 returned AF4-AF9 inh -2.7 and FGF22 binding inactive.
`COc1ccc(-c2ccc3c(c2)[C@@H]2[C@@H](CCN2C(=O)C2CC2)[C@H](CO)N3C)cc1` gave AF4-AF9 inh inconclusive and FGF22 binding inactive.
O=C(Nc1ccc2c(c1)OCO2)N[C@@H]1CC[C@H](CCNC(=O)C2CCCC2)O[C@@H]1CO was read as AF4-AF9 inh 1.7 and FGF22 binding inactive.
Screening O=C(C[C@@H]1C[C@H]2c3cc(NC(=O)C4CCOCC4)ccc3O[C@H]2[C@@H](CO)O1)NCCN1CCCCC1 returned AF4-AF9 inh -3.6 and FGF22 binding inactive.
C[C@@H]1CN([C@@H](C)CO)C(=O)c2cc(NS(=O)(=O)c3cn(C)cn3)ccc2O[C@@H](C)CCCCO[C@@H]1CN(C)C(=O)Nc1ccccc1 was read as AF4-AF9 inh -1.6 and FGF22 binding inactive.
Screening COc1ccc(S(=O)(=O)Nc2ccc3c(c2)C(=O)N([C@@H](C)CO)C[C@H](C)[C@H](CN(C)C(=O)C2CCCCC2)OCCCC[C@H](C)O3)cc1 returned AF4-AF9 inh 3.2 and FGF22 binding inactive.
`COCc1cn(CC[C@@H]2CC[C@H](NC(=O)c3ccccc3)[C@H](CO)O2)nn1` gave AF4-AF9 inh -1.0 and FGF22 binding inactive.
For CC=Cc1ccc2n(c1=O)C[C@H]1[C@H](CO)[C@@H](C(=O)NCCC)[C@@H]2N1C(=O)c1ccccc1F (mixture of isomers) the results were AF4-AF9 inh 0.3 and FGF22 binding inactive.
CCCNC(=O)N(C)C[C@H]1Oc2ncc(C#Cc3ccccc3F)cc2C(=O)N([C@H](C)CO)C[C@H]1C was read as AF4-AF9 inh -3.9 and FGF22 binding inactive.
Screening Cc1ccc(S(=O)(=O)N[C@H]2CC[C@H](CCn3cc(C4CC4)nn3)O[C@@H]2CO)cc1 returned AF4-AF9 inh -0.7 and FGF22 binding inactive.
CCS(=O)(=O)N1CC2(C1)[C@@H](c1ccccc1)[C@H](CO)N2Cc1ccc(F)cc1 was read as AF4-AF9 inh -0.4 and FGF22 binding inactive.
For CN1C(=O)c2cc(NC(=O)C3CC3)ccc2OC[C@H]2O[C@H](CC(=O)NCCc3ccncc3)CC[C@H]21 the results were AF4-AF9 inh -10.5 and FGF22 binding inactive.
For C[C@@H]1CN([C@@H](C)CO)C(=O)Cc2cc(NS(C)(=O)=O)ccc2O[C@H]1CN(C)S(C)(=O)=O the results were AF4-AF9 inh -3.3 and FGF22 binding inactive.
For Cc1noc(C)c1S(=O)(=O)Nc1ccc2c(c1)CC(=O)N([C@@H](C)CO)C[C@@H](C)[C@@H](CN(C)S(=O)(=O)c1ccc(Cl)cc1)O2 the results were AF4-AF9 inh -1.9 and FGF22 binding inactive.
`O=C(c1cccc(F)c1)N1CCCCN2[C@H](CO)[C@H](c3ccc(-c4ccc(F)cc4)cc3)[C@H]2C1` gave AF4-AF9 inh 7.8 and FGF22 binding inactive.
For COc1ccc(S(=O)(=O)N(C)C[C@@H]2Oc3ccc(NC(=O)CCCCCC(=O)Nc4ccccc4N)cc3CC(=O)N([C@@H](C)CO)C[C@@H]2C)cc1 the results were AF4-AF9 inh -0.4 and FGF22 binding inactive.
Cc1ccc(S(=O)(=O)Nc2cccc3c2O[C@@H](CN(C)C(=O)Nc2ccc(F)cc2)[C@H](C)CN([C@H](C)CO)C3=O)cc1 was read as AF4-AF9 inh -4.1 and FGF22 binding inactive.
O=C(CCN1CCCCC1)N[C@@H]1CC[C@H](CC(=O)N2CCC(Cc3ccccc3)CC2)O[C@@H]1CO was read as AF4-AF9 inh 2.7 and FGF22 binding inactive.
Screening C[C@@H]1CN([C@@H](C)CO)C(=O)c2cc(NC(=O)Nc3ccccc3)ccc2O[C@@H](C)CCCCO[C@@H]1CN(C)C returned AF4-AF9 inh 2.2 and FGF22 binding inactive.
For C[C@@H]1CN([C@H](C)CO)S(=O)(=O)c2ccc(-c3cccc(C#N)c3)cc2O[C@@H]1CN(C)C(=O)Nc1ccccc1F the results were AF4-AF9 inh 2.5 and FGF22 binding inactive.
`O=C(C[C@@H]1CC[C@H]2[C@@H](COC[C@@H](O)CN2S(=O)(=O)c2ccccc2Cl)O1)NCc1ccccc1Cl` gave AF4-AF9 inh -0.3 and FGF22 binding inactive.
For O=C(C[C@@H]1CC[C@@H](NC(=O)c2ccncc2)[C@@H](CO)O1)NCC1CCCCC1 the results were AF4-AF9 inh -1.1 and FGF22 binding inactive.
COc1cccc(-c2ccc([C@@H]3[C@@H](CO)N4C(=O)CN(C(=O)NC(C)C)C[C@H]34)cc2)c1 was read as AF4-AF9 inh 1.2 and FGF22 binding inactive.
Screening O=C(c1ccccc1F)N1CC[C@@H]2[C@H]1c1cc(Br)ccc1N[C@@H]2CO returned AF4-AF9 inh 3.0 and FGF22 binding inactive.
For O=C([C@@H]1[C@@H](CO)[C@@H]2Cn3c(cccc3=O)[C@H]1N2Cc1cccc(Cl)c1)N1CCCCC1 the results were AF4-AF9 inh -0.2 and FGF22 binding inactive.
`Cc1noc(C)c1NC(=O)Nc1ccc2c(c1)C(=O)N([C@@H](C)CO)C[C@@H](C)[C@@H](CN(C)Cc1ccncc1)OCCCC[C@H](C)O2` gave AF4-AF9 inh -2.3 and FGF22 binding inactive.
O=C(Nc1cc(F)ccc1F)N1C[C@H]2[C@@H](c3ccccc31)[C@@H](CO)N2Cc1cccnc1 was read as AF4-AF9 inh -4.8 and FGF22 binding inactive.
Screening C[C@@H]1CN([C@H](C)CO)C(=O)c2cccc(NC(=O)Nc3ccccc3)c2O[C@H]1CN(C)C(=O)Nc1ccc2c(c1)OCO2 returned AF4-AF9 inh 3.3 and FGF22 binding inactive.
Screening C[C@H]1CN([C@@H](C)CO)C(=O)CCCn2nncc2CO[C@H]1CN(C)Cc1cccc(C(F)(F)F)c1 returned AF4-AF9 inh 1.9 and FGF22 binding inactive.
